YopH inh: YopH (Yersinia) phosphatase inhibition | AID 898 | 0.16% of 140,000 active | inhibition, %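 (about 10 µM by stock and volumes)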 | fluorescence Ex485/Em525;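 active = inhibition of 50% or more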;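 note: controls were vehicle for no effect and minimum signal wells for full effect; inactives centre near -20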
Arbovirus anti: blocks arbovirus infection | arbovirus infection cell-based antiviral screen | inhibition, % at 10 µM | 0.37% of 200,000 active;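 active = inhibition from about 30%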;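 note: bluetongue infection of BSR cells; cell survival read as ATP light after 72 h; 0% = infected wells without compound and 100% = uninfected wells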
Mtb bLac sens: beta-lactam sensitization of Mtb H37Rv | M. tuberculosis H37Rv growth with meropenem, percent inhibition; hits of this screen are not shown here | inhibition, % at 25 µM | 0.27% of 330,000 active | AID 434955;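 active = about 74% or more and at least 40 points above the plate without the antibiotic, then above 30% in a dose series; inconclusive = first-round hits that could not be retested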;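 note: growth measured after seven days incubation then overnight dye step; 0% = bacteria only wells and 100% = bacteria with antibiotic; twin plates without the antibiotic show which effects depend on it; some results filed as inactive read as strong as hits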
Mtb growth: M. tuberculosis H37Rv growth inhibitors, H37Rv strain (AID 1626); M. tuberculosis H37Rv growth inhibition; higher % means a stronger effect; inhibition, % at 10 µM; hits with a dose series show IC50 in µM; 0.95% of 220,000 active;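 active = confirmed in a dose series; inconclusive = inhibition above 80% but not taken into the dose series; inactive = below 80% or under 30% at every dose of the series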;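 note: bacteria incubated seven days before Alamar blue readout; 0% = bacteria only wells and 100% = bacteria with antibiotic wells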
RecA splice inh: blocks M. tuberculosis RecA intein splicing; P9WHJ3; cell-free RecA intein splicing, fluorescence; inhibition, %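 (about 9 µM by stock and volumes)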; 0.75% of 290,000 active; in the data active = inhibition above about 30%; inconclusive = no clear call, values can overlap the other calls;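 note: 0% = vehicle wells and 100% = reference inhibitor control wells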
Target sequence (P9WHJ3 whole entry, looked up, canonical isoform): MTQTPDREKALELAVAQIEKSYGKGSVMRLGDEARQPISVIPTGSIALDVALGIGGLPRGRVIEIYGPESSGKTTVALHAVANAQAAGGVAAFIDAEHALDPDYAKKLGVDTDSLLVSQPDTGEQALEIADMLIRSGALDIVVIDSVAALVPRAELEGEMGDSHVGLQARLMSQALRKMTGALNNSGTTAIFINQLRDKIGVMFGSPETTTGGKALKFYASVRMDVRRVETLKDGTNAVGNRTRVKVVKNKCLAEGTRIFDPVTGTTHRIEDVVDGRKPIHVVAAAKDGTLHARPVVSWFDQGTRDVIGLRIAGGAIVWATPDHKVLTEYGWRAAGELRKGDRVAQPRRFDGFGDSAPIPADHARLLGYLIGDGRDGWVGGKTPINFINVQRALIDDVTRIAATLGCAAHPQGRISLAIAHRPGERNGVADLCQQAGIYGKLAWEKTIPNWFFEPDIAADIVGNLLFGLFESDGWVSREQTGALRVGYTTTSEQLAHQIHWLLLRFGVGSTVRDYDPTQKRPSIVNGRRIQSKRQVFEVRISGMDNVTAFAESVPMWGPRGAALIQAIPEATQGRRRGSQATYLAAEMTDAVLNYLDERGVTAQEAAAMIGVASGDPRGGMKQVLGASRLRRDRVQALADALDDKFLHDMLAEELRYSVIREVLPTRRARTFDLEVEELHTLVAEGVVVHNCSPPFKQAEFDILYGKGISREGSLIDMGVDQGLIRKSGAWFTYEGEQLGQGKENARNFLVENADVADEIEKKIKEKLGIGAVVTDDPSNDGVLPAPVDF
Arbovirus anti repeat: further read-out of Arbovirus anti, marked with its call; inhibition, %; measured here: 10K subset replicate screen; many hits read low in the repeat;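 first of two repeat runs on a subset; 0% = infected and 100% = uninfected wells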
* = called active by the depositor; ? = inconclusive; . = not tested or not shown.

SMILES	YopH inh	Arbovirus anti	Mtb bLac sens	Mtb growth	RecA splice inh	others
Cc1ccc[n+](/C(C(=S)NCc2ccco2)=C(/[O-])c2ccccc2Cl)c1	-8	4	-7	0%	-2.9
CCOC(=O)N1CCN(S(=O)(=O)c2ccc(C(=O)N(CCN(C)C)c3nc4ccc(Cl)cc4s3)cc2)CC1	.	.	-25	.	-0.2
N#C/C(=N\Nc1cccc2ccccc12)c1nnc2n1CCCCC2	-8	-3	-1	3%	-0.3
O=Cc1c(N2CCOCC2)nc2ccccn2c1=O	.	-2	21	4%	-5.2
CCc1nc(C)cn1S(=O)(=O)c1ccc([N+](=O)[O-])cc1	.	8	2	-4%	-0.9
CC(CN1CCCCC1)OC(=O)c1ccc(Cl)cc1 (stereo not drawn)	5	4	-16	-1%	2.5
COCCNC(=O)c1ccc(NS(C)(=O)=O)cc1	-30	5	7	-1%	-0.7
CCn1c(=S)[nH]c2ccccc21	-7	1	1	-10%	0.2
CSc1nc(-c2ccc(Cl)cc2)nn1S(=O)(=O)c1ccccc1	35	0	.	13%	-15
CCc1ccc(C2C3=C(CC(C)(C)CC3=O)OC3=C2C(=O)CC(C)(C)C3)cc1	-24	-7	-4	-1%	1.9
Cc1ccc(N2C(=O)c3ccc(C(=O)N4CCN(c5ccccc5F)CC4)cc3C2=O)cc1	-33	-2	1	-3%	0.9	Arbovirus anti repeat=-1
CCc1c(C)sc(NC(=S)Nc2nc(C)cc(C)n2)c1C(=O)OC	.	-2	5	-4%	0.4
CSCC[C@H](NC(=O)C1CCN(S(=O)(=O)c2ccccc2)CC1)C(=O)NC1CC1	.	.	-7	.	0.7
C=C(Br)Cn1c(CC)nc2ccccc21	-28	1	-1	-1%	0.6
O=C(CCC1CCCCC1)N1CCN(Cc2ccc3c(c2)OCO3)CC1	-27	-3	0	-7%	2.4
CSc1cccc(NC(=O)c2ccco2)c1	-28	1	-4	1%	-0.1
Cc1cnc(NC(=O)CSc2nnc(Cc3ccccc3)o2)s1	-7	-2	-3	3%	1.0
N#Cc1c(-c2ccccc2)cc(-c2ccccc2)nc1SCc1nnc(-c2ccccc2)o1	-24	-1	1	6%	-2.5
Cn1c(=O)c2c(nc(CN3CCN(C(=O)c4ccco4)CC3)n2CC(N)=O)n(C)c1=O	.	.	-3	.	-0.4
CCOc1ccc(NC(=O)C2CC3CCC2C3)cc1 (stereo not drawn)	.	.	-5	.	1.4
COc1cc2c3c(c1)c(N=NC(N)=S)c(O)n3C(C)(C)C=C2C	.	.	4	3%	0.6
CCCNC(=O)COC(=O)c1cccnc1Nc1ccccc1F	-14	3	0	-2%	2.0
O=C(NC12CC3CC(CC(C3)C1)C2)C1CCCN1C(=O)Nc1ccccc1 (stereo not drawn)	.	.	5	.	0.3
COc1ccc(C2CC(=O)N(CC(=O)NCC3CCCO3)c3ccccc3S2)cc1 (stereo not drawn)	.	6	10	-7%	-1.7
Cc1ccccc1CCN(C(=O)c1csnn1)C(C(=O)NC1CCCC1)c1ccco1 (stereo not drawn)	.	.	4	.	-3.9
CNc1ccc(/C=C/C(=O)c2ccc3c(c2)OCCO3)cc1[N+](=O)[O-]	-14	9	1	8%	0.3
CC(C)C[C@H](NC(=O)Nc1ccc2c(c1)OCCO2)C(=O)O	.	.	1	-6%	1.6
O=C(CC(C(=O)O)c1c(F)cccc1Cl)c1ccc(Cl)cc1 (stereo not drawn)	.	.	2	.	-5.5
O=c1cc(CO)oc(C(Nc2ccccn2)c2ccccc2F)c1O (stereo not drawn)	-32	-1	-13	-2%	-3.1	Arbovirus anti repeat=0
CCc1ccccc1-n1nnnc1SCC(=O)Nc1ccc(N2CCN(C)CC2)cc1	.	.	?	.	5.4

The closing 2 entries of the part above open the next one.
SMILES	YopH inh	Arbovirus anti	Mtb bLac sens	Mtb growth	RecA splice inh	others
O=c1cc(CO)oc(C(Nc2ccccn2)c2ccccc2F)c1O (stereo not drawn)	-32	-1	-13	-2%	-3.1	Arbovirus anti repeat=0
CCc1ccccc1-n1nnnc1SCC(=O)Nc1ccc(N2CCN(C)CC2)cc1	.	.	?	.	5.4
Cc1ccc(F)c(NC(=O)CCOc2ccccc2C)c1	.	.	-10	.	-0.7
COc1ccc(CCN(C)C(=O)C23CC4CC(CC(Cl)(C4)C2)C3)cc1OC	.	.	3	.	3.3
CCOCCOC(=O)C(C)Oc1ccc(Oc2ncc(Cl)cc2Cl)cc1 (stereo not drawn)	-23	4	100	?	-3.1
COC(=O)N/N=C/c1cc(Cl)cc(Cl)c1OCc1ccc(F)cc1	-11	11	2	1%	0.5
CC(=Nc1ccc2c(c1)CCC2)c1c(O)n(C)c(=O)n(C)c1=O	.	.	-11	0%	-0.1
COc1cc2ncnc(N[C@H](C)c3ccccc3)c2cc1OC	.	.	0	.	-1.8
COc1ccc(C(=O)NCCc2nc3cc([N+](=O)[O-])ccc3n2C)cc1	.	.	-5	6%	7.2
Cn1c(O)c(C=NCCc2c[nH]c3ccccc23)c(=O)n(C)c1=O	-51	-1	-6	-2%	0.1	Arbovirus anti repeat=5
Fc1ccc(CNC(=S)Nc2ccc(OC(F)F)cc2)cc1	-24	22	3	11%	1.6
O=C(CSc1nnc(-c2ccc3c(c2)OCCO3)o1)N1CCCC1	-45	-1	49	-6%	-5.3

5 consecutive entries out of the list so far, quoted:
SMILES	YopH inh	Arbovirus anti	Mtb bLac sens	Mtb growth	RecA splice inh	others
Cc1ccc[n+](/C(C(=S)NCc2ccco2)=C(/[O-])c2ccccc2Cl)c1	-8	4	-7	0%	-2.9
CCOC(=O)N1CCN(S(=O)(=O)c2ccc(C(=O)N(CCN(C)C)c3nc4ccc(Cl)cc4s3)cc2)CC1	.	.	-25	.	-0.2
N#C/C(=N\Nc1cccc2ccccc12)c1nnc2n1CCCCC2	-8	-3	-1	3%	-0.3
O=Cc1c(N2CCOCC2)nc2ccccn2c1=O	.	-2	21	4%	-5.2
CCc1nc(C)cn1S(=O)(=O)c1ccc([N+](=O)[O-])cc1	.	8	2	-4%	-0.9

Next section.
SMILES	YopH inh	Arbovirus anti	Mtb bLac sens	Mtb growth	RecA splice inh	others
CCCC(=O)Nc1sc2c(c1C#N)CCCCC2	-17	-18	100	66%	-0.3
CC(=O)Nc1ccc(NC(=S)NC(=O)c2oc3ccccc3c2C)cc1	-36	-11	-1	-4%	-7.0
O=C1CCN(CCc2ccccc2)CCN1CCSc1ccccc1	.	.	-4	.	3.8
COc1ccc(OC)c(NC(=O)C2C3CCC(C3=C(C)C)C2C(=O)O)c1 (stereo not drawn)	-47	0	-2	-5%	0.2
O=C(Nc1ccccc1)c1ccc(-n2cnnn2)cc1	.	.	-7	.	3.1
CC(=O)/C(=C\Nc1ccc(OCc2ccccc2)cc1)c1ccccc1	-46	-1	98	94%	1.5
Cc1cccc(NC(=O)CSc2nncn2-c2ccccn2)c1	.	6	-8	0%	-2.1
Oc1ccc(-c2ccccc2)cc1CN1CCCCCC1	.	.	2	.	4.9
O=C(CN1C(=O)c2cccc3cccc(c23)C1=O)N1CCCCCC1	-4	-4	-5	0%	-0.6
CC(C)Oc1ccc2c3c(c(=O)oc2c1)CCC3	-35	-1	-10	-7%	-9.6
O=C(N/N=C/c1ccoc1)c1cc(O)cc(O)c1	.	.	8	.	0.8
O=C(N/N=C\c1ccccc1)c1cccc(C(=O)N/N=C\c2ccccc2)n1	.	.	-2	.	1.1
CCC(=O)OCCCCCCOc1ccc(C(=O)O)cc1	-36	5	-3	0%	-4.1
COc1ccc(NC2=CC(=O)CC(c3ccccc3)C2)cc1 (stereo not drawn)	.	-7	-1	-3%	1.0
CCOc1ncccc1C(=O)OCC(=O)c1cc(OC)c(OC)c(OC)c1	.	.	-2	-17%	0.5
CCc1cc2c(=O)[nH]c(Cc3ccccc3)nc2s1	-22	-8	9	3%	3.2
O=C(NCc1ccco1)c1nn2c(C(F)(F)F)cc(-c3cccs3)nc2c1Br	-19	-10	-7	1%	-2.9
COc1cccc(N2C(=O)c3cccnc3C2O)c1 (stereo not drawn)	.	.	-4	.	-0.5
COc1nc(OC)nc(N2CCC(NC(=O)C(Cc3ccc(C(C)C)cc3)NC(C)=O)CC2)n1 (stereo not drawn)	-35	-1	16	6%	-0.8
CC(=O)[C@H]1CC[C@H]2[C@@H]3CC[C@H]4C[C@H](O)CC[C@]4(C)[C@H]3C(=O)C[C@]12C	-27	4	-10	-6%	0.7
Cc1cc(/C=N/n2cnnc2)c(C)n1-c1ccc(OCc2ccc(Cl)cc2)cc1	-15	-37	97	?	4.9
O=C(NCc1ccc(Cl)cc1)C1CCC(=O)N(C2CC2)C1 (stereo not drawn)	.	.	9	.	2.5
[O-][N+]1=c2ccc(Nc3ccccc3)cc2=NC12CCCCC2	-14	-31	99	78%	80*
CCOC(=O)N1CCN(C(=O)C(C)N(c2ccc(Oc3ccccc3)cc2)S(C)(=O)=O)CC1 (stereo not drawn)	-42	-1	-7	-9%	-3.2
Clc1ccc2[nH]cc(-c3nnnn3-c3ccc4ccccc4c3)c2c1	-34	-11	6	-6%	0.2
CCc1noc(C)c1C(=O)N1CCN(S(=O)(=O)c2ccc(C(C)=O)cc2)CC1	.	.	-17	.	1.2
Cc1ccc(NC(=O)/C(=C\c2cccs2)NC(=O)c2ccccc2)cc1	-30	-5	4	-1%	3.2
O=C(c1cccc(S(=O)(=O)Nc2cccc(C(F)(F)F)c2)c1)N1CCCCC1	-44	9	0	-7%	3.3
CCCN(CC(=O)Nc1ccccc1C)C(=O)c1ccc(C)c(S(=O)(=O)N2CCCCC2)c1	.	.	1	.	-3.3
Cc1ccc(Nc2cc(C)nc3ccc(C)cc23)cc1	.	.	16	.	2.5
CC(C)n1c(N2CCN(CC(=O)Nc3ccc4c(c3)OCCO4)CC2)nc2ccccc21	-27	-6	6	-8%	-1.1
CC(=O)c1c(C)[nH]c(-c2ccccc2)nc1=S	.	.	-7	-3%	1.9
O=C1/C(=C/c2cccc(F)c2)CSc2sccc21	-32	-5	7	15%	0.1
Cc1cc(=O)oc2c3c(cc(OCC(=O)NCCCn4ccnc4)c12)OC(C)(C)CC3	.	.	-5	.	8.1
COC(=O)c1c(C)[nH]c(C(=O)/C=C/c2ccc(C)cc2)c1C	.	.	12	-5%	-2.7
CN1N=C(C(=O)NC2CCCc3c2cnn3-c2ccc(F)cc2F)CCC1=O (stereo not drawn)	.	.	1	.	2.7
CC(C)(C)NC(=O)c1cccc2c1-c1ccccc1C2=O	.	.	18	.	-1.3
COC(=O)COc1ccc2c(c1)O/C(=C\c1ccco1)C2=O	.	.	?	.	0.2
Cc1cc(=S)[nH]c(=S)[nH]1	.	.	-6	14%	-3.2
Cc1cc(/C=C(/C#N)c2nc3ccccc3[nH]2)c(C)n1-c1ccccc1C(=O)O	.	12	0	0%	-3.6
Cc1ccc(CNC(=O)C(C)OC(=O)c2cccs2)cc1 (stereo not drawn)	-4	1	11	-4%	2.9
O=C(C1=C[C@H](C2CCCCC2)C[C@H](OCCCCO)O1)N1CCN(Cc2ccccc2)CC1	.	-12	5	0%	4.2
CCCN1CC(C)C(OC(C)=O)(c2ccccc2)CC1C (stereo not drawn)	-28	4	0	-7%	-0.5
Cc1ccc(NC2=Nc3ccccc3N3C2=Nc2c(c(C)nn2-c2ccccc2)C3c2ccc(O)c(O)c2)cc1 (stereo not drawn)	-9	-42	.	.	.
Cn1cc(C(=O)N2CCN(c3ccccc3)CC2)c(=O)c2cc(S(=O)(=O)N3CCCC3)ccc21	.	.	-10	.	-0.6
N#Cc1ccc(-c2ccc(OCC(O)CN3CCOCC3)cc2)cc1 (stereo not drawn)	.	-4	-6	2%	2.2
CCc1nn(CC(=O)N2CCN(c3ccc(F)cc3)CC2)c(=O)c2cc3occc3n12	.	.	8	.	-0.4
Cc1ccc(S(=O)(=O)N2CCN(C(=O)c3cc4c(C)nn(-c5ccccc5C)c4s3)CC2)cc1	0	-14	-9	6%	13
CCOC(=O)C1C(=O)OC(C)(C)C1C(C)C(=O)c1ccc(C)cc1 (stereo not drawn)	-30	10	-23	1%	-3.0
Cc1ccc(C(=O)N(c2ccccn2)C(C)c2ccco2)cc1C (stereo not drawn)	-10	5	8	-9%	-4.0

(continued)
SMILES	YopH inh	Arbovirus anti	Mtb bLac sens	Mtb growth	RecA splice inh	others
COc1ccc(N(C(=O)C2CCCCC2)S(=O)(=O)c2cccc3cccnc23)cc1	.	-3	9	-6%	7.4
O=C1CN(C(=O)CN2CCOCC2)C(c2ccccc2)c2cc(Br)ccc2N1 (stereo not drawn)	-48	8	0	-6%	5.7	Arbovirus anti repeat=8
CCCC(=O)N(CCN(Cc1ccccc1)C(=O)CCC)Cc1ccccc1	-18	-6	72	11%	2.9
CCn1c(=O)cc(SCC(=O)NCc2ccc3c(c2)OCO3)c2ccccc21	-39	-13	8	-2%	-1.3
COC(=O)[C@H](Cc1ccccc1)NC(=O)N1CCN(c2ccccc2)CC1	.	.	17	2%	0.6
Cc1ccsc1/C=C(\C#N)C(=O)NCc1cccnc1	-33	-3	1	7%	4.3

High-throughput results: PubChem BioAssay, several laboratories

A portion of the library. The share of hits here may be higher or lower than overall.
